# NPYLR7 ag: agonists of mosquito NPYLR7 receptor, primary screen, cell-based, Aedes aegypti, calcium fluorescence, mosquito biting behavior. Aedes aegypti neuropeptide Y-like receptor 7 (NPYLR7). HEK293T NPYLR7/Galpha15, GCaMP6s calcium fluorescence. activation, % at 10 µM. 0.15% of 270,000 active. AID 1259423, 2018; in the data active = activation above about 40%;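 also: 0% = vehicle and 100% = reference agonist at the receptor; some compounds past the cut are filed as inactive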
# NPYLR7 ag max-min: recorded beside NPYLR7 ag, whose call it bears; activation, %; measured here: Max-Min RFU normalised activation; some inactives read as strong as hits;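 span of the calcium signal over five minutes; 0% = vehicle and 100% = native peptide agonist; compound fluorescence can raise it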
# Numbers without * were called inactive; & = joins results of further samples. The list is partial; count on the stated rates, not on these rows.
# Every second line gives: NPYLR7 ag, NPYLR7 ag max-min
1	CCC(NCc1cccnc1-n1cncn1)C(=O)Nc1ccccc1 (stereo not given)
→ 22, 12
2	Cc1ccc(-c2nc(C)c(C(=O)N3CC(C(N)=O)CCC3C)s2)c(C)c1 (stereo not given)
→ 11, 10
3	COc1cccc2sc(N3CCc4ccccc4C3)nc12
→ 3, 1
4	Nc1nc(SCC(=O)NCCC2=CCCCC2)nc2sc3c(c12)CCCC3
→ 0, 4
5	COc1ccc(Br)cc1/C=C1N=C(/C=C\c2cccc([N+](=O)[O-])c2)OC/1=O
→ -10, -16
6	CCOC(=O)[C@H]1C[C@@H]2O[C@H]1[C@H]1CN(Cc3cccn3C)C[C@H]1[C@@H]2O
→ 2, 0
7	CCN(CC)CCNCc1cc(Br)ccc1OCC(=O)NCc1ccccc1
→ -4, -6
8	COc1cc2c(cc1O)CC[C@@H]1[C@@H]2CC[C@]2(C)[C@@H](O)CC[C@@H]12
→ -1, 0
9	COc1ccc(-c2cc(C(=O)NC(C)c3ccccc3)c(C)n2-c2cccc(OC)c2)cc1 (stereo not given)
→ 1, 13
10	O=C(Nc1cnc2n1CCCC2)c1sccc1S(=O)(=O)N1CCCC1
→ 7, 0
11	O=C(NCCCn1nc(-c2ccncc2)ccc1=O)c1ccccc1Cl
→ 16, 11
12	Cc1ccc(NC(=O)C2Cc3ccccc3C(=O)O2)c(Br)c1 (stereo not given)
→ 10, 3
13	O=C1CSC(=S)N1N=Cc1cccs1
→ 3, 2
14	CN(C)CCCNc1nc2cc(-c3ccccc3)sc2c(=O)n1C
→ 7, 3
15	Cc1ccc(-c2nnc(SCCCC(=O)N3CCN(C(=O)c4cccc(F)c4)C(C)C3)n2-c2ccc(C)cc2)cc1 (stereo not given)
→ 7, 7
16	O=C1OC(/C=C/c2ccccc2)=NC/1=C\c1cccc2ccccc12
→ -2, -3
17	CNC(=O)c1ccc(CN2CCCC(c3ccccc3)CC2)cc1 (stereo not given)
→ 3, 2
18	CN1C(=O)CC(c2ccccc2)C1=O (stereo not given)
→ 8, -6
19	O=C(c1ncoc1-c1ccccc1)N1C[C@H](Oc2ccccn2)[C@H]2C[C@@H]1CC[C@H]2O
→ 14, 24
20	CC(=O)NN1C(=O)/C(=C\c2ccc(O)cc2)SC1=S
→ 81*, 71*

# Going on with the list.
# Every second line gives: NPYLR7 ag, NPYLR7 ag max-min
21	COc1ccc(-c2nnc3n(C)c4c(=O)n(C)c(=O)n(C)c4n23)cc1
→ 5, 1
22	Cc1cccc(C(=O)N2CCC3(CC2)OCC(C(=O)O)N3C(=O)c2ccccc2C)c1 (stereo not given)
→ 4, 14
23	COc1ccc(CC2CN(S(C)(=O)=O)CCO2)cc1 (stereo not given)
→ 20, 9
24	NC(=O)c1cccc(S(=O)(=O)Nc2ccccc2Cl)c1
→ 6, 4
25	CCOc1ccc(NC(=O)NC(Cc2ccccc2)c2nnc(SCc3ccccc3)n2-c2ccc(C)cc2)cc1 (stereo not given)
→ -12, -7
26	CCCCNc1nccnc1-c1cc(C)c(O)c(C)c1
→ -4, -8
27	CCn1nc(C(=O)O)c2c1CCC(NCc1nn(CC)c3ccccc13)C2 (stereo not given)
→ 2, 0
28	O=[N+]([O-])c1ccc(N2CCCC2)cc1Sc1nnnn1-c1ccccc1
→ 7, 7
29	Cc1c(CS(C)=O)cccc1NC(=O)CC1CCCC1 (stereo not given)
→ 7, 3
30	CCOC(=O)c1c(-c2ccc(C)cc2)csc1NC(=O)c1cccnc1
→ -4, -9
31	O=[N+]([O-])c1ccc(NN=C2C3CC4CC2CC(O)(C4)C3)c([N+](=O)[O-])c1
→ 2, 0
32	CN1CCCNC(=O)C12CCN(Cc1ccc(C#CC(C)(C)O)cc1)CC2
→ -1, -5
33	Cc1ccc(S(=O)(=O)/C(=C\N2CCCCC2)c2ccc(Cl)cc2)cc1
→ 1, -2
34	COCCCN(Cc1c(-c2cccc(C)c2)noc1N1CCOCC1)C(=O)c1ccccc1F
→ 6, 12
35	O=C(Nc1nc(-c2cc(Cl)sc2Cl)cs1)c1ccc(S(=O)(=O)N2CCCC2)cc1
→ -3, -7
36	CCC(C)C(=O)Oc1cc(C)ccc1C1(COC(=O)C(C)C)CO1 (stereo not given)
→ -10, -12
37	O=C(N/N=C/c1ccc[nH]1)C1COc2cc3ccccc3cc2O1 (stereo not given)
→ -10, -17
38	CN1CCN(n2c3c(c(SCc4ccc(Br)cc4)nc2=O)CCC3)CC1
→ 9, 3
39	Fc1ccc(N2CCn3c(SCc4cccnc4)nnc32)cc1
→ 4, 6
40	CSc1nc(C(=O)N2CCCC(CNC(=O)c3cc4ccccc4[nH]3)C2)cs1 (stereo not given)
→ 10, 2

# Going on with the list.
# Every second line gives: NPYLR7 ag, NPYLR7 ag max-min
41	CC1=NN(c2ccc(Cl)cc2)C(=O)C12Cc1ccccc1N1CCCCC12 (stereo not given)
→ 8, 5
42	CN(CCC#N)c1ncc(C(F)(F)F)cc1Cl
→ 4, 1
43	NC(=O)CN1C(=O)[C@@H]2CN(C(=O)CSc3ccncc3)CCN2C1=O
→ -8, -11
44	COC(=O)CCCC(=O)N1CCCC(C(=O)Nc2ccc(-c3cscn3)cc2)C1 (stereo not given)
→ 4, 1
45	COC(=O)c1ccc(Nc2nnc(Cc3ccc(Cl)cc3)c(=O)[nH]2)cc1
→ 1, -1
46	COCC(C)NC(=S)NC(c1ccccc1)c1ccccc1 (stereo not given)
→ 1, 1
47	CCc1ccccc1-n1c(=O)c2ccccc2n(C(CC)C(=O)NCc2ccco2)c1=O (stereo not given)
→ -6, 1
48	N#Cc1ccccc1S(=O)(=O)NC1CC2CCC(C1)N2Cc1ccc2c(c1)OCO2 (stereo not given)
→ 1, 0
49	OCc1ccc(-c2nccn2CCn2cccn2)o1
→ 1, 7
50	CCOCCOc1nc(-c2ccccc2F)n(-c2ccc(N)cc2)n1
→ 9, 8
51	CCN(CC)S(=O)(=O)c1ccc(OC)c(N2CCN(S(=O)(=O)c3c(C)c(C)c(C)c(C)c3C)CC2)c1
→ 27, 15
52	COCC(=O)Nc1ccc(Oc2cccc(C)c2)cc1
→ 13, 9
53	Cc1ncc(CN(C)CC(O)c2cc(Cl)ccc2Cl)s1 (stereo not given)
→ 2&11, 1&4
54	O=C(O)C1(Cc2ccccc2)CC2CCC1C2 (stereo not given)
→ -3, -7
55	Cn1c(=NC(=O)c2cc(Cl)sc2Cl)sc2ccccc21
→ -1, 2
56	CCC(c1nc2ccccc2c(=O)n1-c1ccc(Br)cc1)N1CCN(C(=O)c2cccc(Br)c2)C(C)C1 (stereo not given)
→ 31, 26
57	O=C(NCc1cccnc1)c1coc(CN(Cc2ccc3c(c2)OCO3)Cc2ccccc2F)n1
→ 2, 13
58	c1ccc(-n2cncn2)c(CNc2nccc(C3CCCC3)n2)c1
→ 10, 2
59	Cc1cc(C)n(C2CCN(C(=O)c3cccc(CC4CCNCC4)c3)C2)n1 (stereo not given)
→ 7, 5
60	CC1CCCN(c2nc3c(c(=O)n(C)c(=O)n3C)n2CCSc2nc3ccccc3o2)C1 (stereo not given)
→ 1, 8

# Later entries:
# Every second line gives: NPYLR7 ag, NPYLR7 ag max-min
61	Cc1ccc(/C=C2\SC(=O)N(CCC(=O)NNC(=O)c3cccc(Cl)c3)C2=O)cc1
→ -20, -25
62	CCCNC(=O)C(C)OC(=O)c1ccc(OC)nc1 (stereo not given)
→ -4, -9
63	CC1(C)NC(=O)N(CC(=O)OCc2cc(=O)n3ccsc3n2)C1=O
→ 0, 25
64	COc1cc(C2c3c(-c4cc(C)c(C)cc4O)n[nH]c3C(=O)N2CCO)cc(Br)c1O (stereo not given)
→ -9, -15
65	COC(=O)c1sc(N2C(=O)C(=O)C(=C(O)c3ccc(C)cc3)C2c2ccc([N+](=O)[O-])cc2)nc1C (stereo not given)
→ 6, 4
66	CCCN(C1=NC2CS(=O)(=O)CC2S1)c1ccccc1F (stereo not given)
→ 9, 5
67	CCCC(=O)N(Cc1cc2cc(C)ccc2[nH]c1=O)c1ccccc1OC
→ 5, 5
68	Cc1ccc(-c2ccnc(N3[C@@H]4CC[C@H]3CNC(=O)C4)n2)c(C)n1
→ -3, 6
69	Cc1ccc(Cl)c2sc(N(CCCN3CCOCC3)C(=O)c3ccno3)nc12
→ 1, 25
70	CC(C#N)(NC(=O)Cn1cc([N+](=O)[O-])ccc1=O)C1CC1 (stereo not given)
→ -3, -8
71	CCn1cnnc1CNC(=O)c1ccc(Br)o1
→ -2, -3
72	O=C(C1CCCO1)N1CCN(c2ncnc3c2nnn3-c2ccc(Cl)cc2)CC1 (stereo not given)
→ -2, -6
73	COc1cn(C)c(C(=O)Nc2ccc(C(C)C)cc2)cc1=O
→ 2, 0
74	COC(=O)CCN1CCN(S(=O)(=O)c2ccc(Cl)c(C#N)c2)CC1
→ -2, 2
75	Cc1cc(N)nn1-c1ccc(F)cc1F
→ 12, 9
76	CN(Cc1cc(C(C)(C)C)n[nH]1)Cc1nc2ccccc2n1C
→ 1, 1
77	CC(C)CCn1nc(C(=O)N2CCOCC2)c2c1CCN(C(=O)Cn1nc3ccccc3n1)C2
→ -7, -9
78	COc1cc(OC)nc(N2CCC3(CCNC(=O)CC3)CC2)n1
→ 8, 6
79	CSC(=N)C(C#N)C(C#N)C(=N)SC (stereo not given)
→ -12, -13
80	CC(=O)Nc1ccc(S(=O)(=O)Oc2ccc(CN(CC(C)C)C(=O)c3cccs3)cc2)cc1
→ 17, 19

# (list continues)
# Every second line gives: NPYLR7 ag, NPYLR7 ag max-min
81	CC(C)(C)c1ccc(S(=O)(=O)NCCN2CCOC(c3ccccc3)C2)cc1 (stereo not given)
→ -8, -12
82	COCCCNc1nccc2[nH]c(-c3cccc(OC(F)(F)F)c3)nc12
→ -4, -7
83	COCC(=O)N1CCC2(CC1)C(=O)N(CC(=O)Nc1cccc(OC)c1)CN2c1ccccc1
→ 2, 13
84	O=C(C1CCCC1)N(CC(=O)N1CCc2sccc2C1COc1cccc(F)c1)C1CC1 (stereo not given)
→ -1, 4
85	CCOc1ccc(C(O)=C2C(=O)C(=O)N(c3nccs3)C2c2ccc(O)c(OC)c2)cc1 (stereo not given)
→ 14, 17
86	CNS(=O)(=O)CCn1cnc(-c2ccccc2)c1-c1ccc(C)cc1F
→ 8, 3
87	COc1ccc(CNC(=O)N2CCN(S(=O)(=O)c3ccccc3Cl)CC2)cn1
→ 2&0, 0&2
88	Cc1ccccc1Cn1cnc2c(cnn2CCNC(=O)c2ccco2)c1=O
→ -3, -11
89	C=c1cc(C)n(CC(=O)Nc2ccc(OC)c(OC)c2)c(=O)c1=C1N=C(c2ccc(F)cc2)NO1
→ 0, -2
90	COC(=O)c1ccc(Nc2nccc3[nH]c(-c4ccsc4)cc23)cc1
→ 4, -6
91	CCOC(=O)c1ccc(CSc2nnc3ccc(C(F)(F)F)cn23)o1
→ 9, 4
92	CC(C)c1ccc(NC(=O)N2CCN(C(C(=O)N(C)Cc3ccco3)C3CCCC3)CC2)cc1 (stereo not given)
→ 5, 2
93	CN(C)CCNCCOc1ccc(Br)cc1Cl
→ -8, 13
94	CC(C)Nc1nnc(SCC(=O)N(C)Cc2cccc(Cl)c2)s1
→ 5, 4
95	O=C(/C=C/c1ccoc1)NC(c1ccc(F)cc1)c1ccc(SCc2ccccc2)cc1 (stereo not given)
→ -3, -13
96	CCOc1ccc(N2C(=O)Cc3ccccc3C2=O)cc1
→ -3, -3
97	O=C(c1ccc(-c2ccccc2F)o1)N1CCN(S(=O)(=O)c2ccc(F)c(Cl)c2)CC1
→ 4, 10
98	COc1ccccc1C(NC(=O)C1CCN(Cc2cccc(C(F)(F)F)c2)CC1)c1ccccn1 (stereo not given)
→ 6, 5
99	CC(=O)c1c(F)cccc1N1CCCC(N2CCNC2=O)C1 (stereo not given)
→ 0, -1
100	Cc1ccc(-n2c(=O)c3ccccc3n(Cc3ccc(C(=O)NCc4cccc(C(F)(F)F)c4)cc3)c2=O)cc1C
→ 18, 9

# The listing continues:
# Every second line gives: NPYLR7 ag, NPYLR7 ag max-min
101	CC(C)OCCCn1c(=O)c(C#N)cc2c(=O)n3ccccc3nc21
→ 1, 0
102	O=C1SC(Nc2ccc(I)cc2)C(=O)N1c1ccccc1 (stereo not given)
→ 63*, 65*
103	Cc1cccc(Oc2cc(N3CCN(CCN4CCOCC4)CC3)ncn2)c1
→ -10, 6
104	COc1ccc(Cl)cc1-c1nc(=S)n(CN2CCCC2c2ccccc2)[nH]1 (stereo not given)
→ 2, 1
105	Nc1nc(CCCNC(=O)CC2CCc3ccccc32)cs1 (stereo not given)
→ -2, -2
106	O=C(CCN1CCCCO1)NCc1ccc2c(c1)OCCCO2
→ -4, -9

# Screening data: PubChem, Fisher Drug Discovery Resource Center
